Screening results as filed in PubChem BioAssay.
HIV Env fusion: HIV envelope-mediated fusion inhibition. HeLa-JRFL Env/CEM21 cell fusion, luciferase. inhibition, % at 12.3 µM. 1.1% of 360,000 active. AID 651610;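 active = mean replicate inhibition score of at least 50 and every replicate individually at or above 50; inconclusive = only one of the two criteria met; inactive = mean below 50 and not all replicates reaching 50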;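 also: 0% = plate neutral controls and 100% = maraviroc near 300 nM; one replicate is shown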
MT1-MMP act inh: blocks activation of human MT1-MMP | HT1080 RFP-PRO-GFP cells, GFP/RFP ratio fluorescence, overnight; percent of plate control window, DMSO zero | AID 651647 | 0.061% of 360,000 active | P50281 | GFP/RFP ratio change, % at 20 µM;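 active = GFP/RFP ratio change of at least 30% with cell ATP level not reduced by more than half and red fluorescence within 50% of control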; also: strong numbers were not always called active
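Assay system – RFP-PRO-GFP reporter HT1080 cells · Compound dosing – single dose of 20 µM compound, 1% DMSO final · Incubation – overnight compound exposure at 37 °C · Measure – GFP/RFP fluorescence ratio · Benchmarks – DMSO wells and RFP-L50D-GFP cells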
Yeast UUG start: alters start codon recognition fidelity in yeast. activity score, % at 18.7 µM. S. cerevisiae UUG-firefly luciferase reporter, luminescence/redox ratio. 0.13% of 350,000 active. AID 602363;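 active = replicate mean at a twofold rise or more, about +100% in these data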;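 also: firefly luciferase made from a UUG start codon reports start codon fidelity; reporter light over untreated wells divided by growth signal over untreated wells; some hits fall short of that in this replicate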
Rce1 inh: inhibitors of yeast Ras-converting enzyme; yeast membranes, quenched prenylated peptide cleavage fluorescence; calls only; Q03530; AID 2563; 0.27% of 290,000 active;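 active = fall in fluorescence gain of 50% or more versus controls, with final raw signal at or below 3038400; inconclusive = same 50% fall but final raw signal above 3038400; inactive = fall in fluorescence gain under 50%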;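 also: plate controls were neutral control wells for no effect and wells lacking membranes for full effect; tested at 10 µM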
Target sequence (Q03530 whole entry, looked up): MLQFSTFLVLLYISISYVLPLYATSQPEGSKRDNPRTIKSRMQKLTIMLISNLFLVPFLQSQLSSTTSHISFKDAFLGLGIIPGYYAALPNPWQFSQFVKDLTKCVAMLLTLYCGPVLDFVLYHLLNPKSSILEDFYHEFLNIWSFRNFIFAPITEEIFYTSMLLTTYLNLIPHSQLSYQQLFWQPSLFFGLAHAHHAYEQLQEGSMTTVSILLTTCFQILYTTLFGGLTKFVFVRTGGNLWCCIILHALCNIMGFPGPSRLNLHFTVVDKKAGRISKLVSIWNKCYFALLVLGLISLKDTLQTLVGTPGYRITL
CSC inhib: cancer stem cell inhibition; cancer stem cell-like cells viability, luminescence; inhibition, % at 7.5 µM; 1.1% of 300,000 active; AID 2717;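 active = mean at 75% or more and at least half the replicates too; inconclusive = mean and replicates disagree; tested in HMLE shEcad cells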;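 also: 0% = median of negative and 100% = median of positive control wells; the first replicate is given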
eIF4H FP inh: inhibitors of RNA binding by human eIF4H. Q15056. inhibition, % at 35 µM. eIF4H fluorescence polarization binding assay. 0.94% of 290,000 active;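 active = 50% or more with normal probe brightness, or confirmed in later tests; inconclusive = above 50% with abnormal brightness, or retests that disagree; inactive = below 50% or failed in later tests; about a fifth of its hits are not listed in these tables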;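 also: calls also rest on retests at 20 µM and on dose response follow-up; 0% = protein and probe with vehicle and 100% = probe without protein; strong numbers were not always called active; many hits fall short of the cut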
PABP polyA inh: blocks human PABP binding to poly(A) RNA; P11940; inhibition, % at 35 µM; 1% of 290,000 active; AID 2014; fluorescence polarization;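 active = 50% or more with normal probe brightness, or confirmed in later tests; inconclusive = above 50% with abnormal brightness, or retests that disagree; inactive = below 50% or failed in later tests; about a fifth of its hits are not listed in these tables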;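 also: calls also rest on retests at 20 µM and on dose response follow-up; controls were probe without protein and protein plus probe with vehicle; some compounds called inactive have numbers as strong as hits; many hits fall short of the cut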
eIF4H FP inh retest: second read-out of eIF4H FP inh, no call of its own (marks repeat the call); inhibition, %; compound at 20 µM; confirmation average;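 mean of two retest wells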
MT1-MMP act inh RFP: recorded beside MT1-MMP act inh, whose call it bears; RFP signal change, %; measured here: RFP expression control read;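 0 = vehicle wells; hits needed this value within 50% of zero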
The depositor's hits bear a star; i = inactive; ? = inconclusive; . = not tested or not shown; + = active, no number; & = joins results of further samples.

SMILES | HIV Env fusion | MT1-MMP act inh | MT1-MMP act inh RFP | Yeast UUG start | Rce1 inh | CSC inhib | eIF4H FP inh | PABP polyA inh | others
Cc1nc(Cl)sc1C(=O)Nc1cc(F)cc(F)c1 | 2 | 3 | 1 | -22 | i | -5 | -6 | -5
O=C(CN1CCN(S(=O)(=O)c2cccc(Br)c2)CC1)NCCc1cccs1 | . | -1 | -5 | 20 | . | -2 | . | .
CCOc1ccc2[nH]c(=O)c(CN(CCN3CCCC3)C(=S)Nc3ccccc3OCC)cc2c1 | -1 | -1 | -2 | . | i | -15 | 3 | 3
CCOc1c(Cl)cnn(-c2ccc(C)cc2)c1=O | . | -1 | -2 | 1 | i | -7 | -10 | -4
CCOC(=O)N1CCN(C(=O)C(=O)Nc2sc3c(c2C(=O)O)CC(C)(C)OC3)CC1 | 11 | -4 | 2 | 2 | i | 3 | -13 | 3
Cc1nn(CC(N)=O)c(=O)c2ccccc12 | . | 5 | 1 | . | i | -5 | -2 | 4
Cc1nn(C(C)C(=O)NCC2CCCO2)c(=O)c2c1sc1ccccc12 (stereo not given) | -2 | -2 | 0 | -10 | i | 8 | -16 | -1
O=C(CCCCCn1nnc2ccccc2c1=O)Nc1ccccc1F | 4 | -2 | 0 | -6 | i | -4 | -1 | -4
CCOC(=O)CSc1ncc(-c2ccccc2)nn1 | 6 | 1 | 2 | -3 | i | -8 | -4 | 5
COc1ccc(-c2cc(C(F)(F)F)n3ncc(C(=O)NCC4CCCO4)c3n2)cc1OC (stereo not given) | . | 18 | 4 | 0 | i | -8 | 62 | ? | eIF4H FP inh retest=14
CN1C[C@@H]2[C@@H]3C(=O)N(Cc4ccccc4)C(=O)[C@@H]3[C@](C)(C1=O)N2C(=O)c1ccc(C(F)(F)F)cc1 | 3 | 22 | -2 | -1 | . | . | . | .
COc1ccccc1NC(=O)CN1C(=O)C(C)Oc2ccccc21 (stereo not given) | -17 | 0 | 2 | -10 | i | -3 | 4 | -4
COc1ccccc1NS(=O)(=O)c1ccc(O)c(C(=O)OCc2cccc([N+](=O)[O-])c2)c1 | -9 | 1 | 0 | 12 | i | -8 | -10 | -20
COc1ccc(C(c2nnnn2C(C)C)N2CCN(C(=O)c3ccco3)CC2)cc1 (stereo not given) | -4 | -1 | 3 | -1 | i | -3 | 5 | 9
COc1ccc(-c2cn3cccnc3n2)cc1NC(=O)C1CC1 | . | 1 | 0 | 4 | i | -8 | 0 | -7
O=C(CC[C@H]1O[C@@H](n2cnc3c(NC(=O)c4ccccc4)ncnc32)[C@H](O)[C@@H]1O)NCC1CCCO1 (stereo not given in full) | 3 | 3 | 4 | -10 | . | . | . | .
Cc1ccc(S(=O)(=O)NCC(=O)N(CC2CCCO2)C(C(=O)NC2CCCC2)C(C)C)cc1 (stereo not given) | 7 | -1 | 0 | -15 | i | -1 | -6 | 4
NC(Cc1ccc(C(F)(F)F)cc1)c1csc(NC(=O)NCCc2ccccc2)n1 (stereo not given) | 66* | -8 | -6 | -12 | . | . | . | .
Clc1ccc(-c2csc(N/N=C/c3ccco3)n2)cc1 | -26 | 0 | -5 | . | . | 19 | 1 | 10
CCCNS(=O)(=O)c1ccc(CCC(=O)N2CCN(CC)CC2)cc1 | . | -2 | 2 | -20 | i | -23 | -4 | 4
CCOc1ccccc1NC(=O)C1COc2ccccc2O1 (stereo not given) | 3 | 2 | -5 | -16 | i | 30 | -3 | 8
CC1=C(C(=O)OC(C)C)C(c2cncc(-c3ccc(F)cc3)c2)C(C#N)=C(N)O1 (stereo not given) | 18 | 1 | 2 | . | i | 3 | -9 | -4
COc1ccc(CCNS(=O)(=O)c2ccc(C(=O)NCc3ccco3)cc2)cc1OC | . | 3 | -5 | 5 | i | -1 | 1 | -1
CCCCC(=O)NC(=S)NNC(=O)CCc1ccccc1 | 5 | 6 | 1 | -58 | i | -9 | 11 | 14
O=C(Nc1ccc(-c2nc3cccnc3s2)cc1)C1CCCO1 (stereo not given) | 40 | -6 | -8 | -86 | i | 8 | 10 | 1
Next section.
SMILES | HIV Env fusion | MT1-MMP act inh | MT1-MMP act inh RFP | Yeast UUG start | Rce1 inh | CSC inhib | eIF4H FP inh | PABP polyA inh | others
CCS(=O)(=O)N1CCC(NC(=O)C(Cc2ccc(OC)c(OC)c2)NC(C)=O)CC1 (stereo not given) | -9 | 1 | 3 | -1 | i | 2 | 5 | 8
COc1ccccc1N1CCN(c2nc(-c3ccccc3)cc(C(F)(F)F)n2)CC1 | 34 | -5 | 1 | -6 | i | 9 | 6 | -1
NC(=O)c1nsc(C(=O)N(CC(=O)NCc2ccccc2)c2cccc(F)c2)c1N | -4 | 2 | 2 | 10 | i | . | -8 | -1
Cc1cc(C)cc(OCC(=O)Nc2ccc(CN3CCCCC3)cc2)c1 | -9 | -3 | -1 | . | i | . | -4 | 2
CC(NC(=O)c1ccccc1Cl)c1nnc(SCC(=O)Nc2ccc(C(=O)O)cc2)n1C (stereo not given) | . | 0 | 3 | -20 | i | 6 | -12 | -12
CC(C)(c1ccccc1)c1ccc(OCCN2CCOCC2)cc1 | 6 | -2 | -3 | 14 | i | 26 | 4 | 6
COC(=O)CCC(=O)N1CCC(Oc2cccc(C(=O)NCc3ccccn3)c2)CC1 | -12 | 0 | 2 | -12 | . | . | . | .
Cc1[nH]c(-c2ccccn2)nc(=S)c1Cl | 13 | 13 | 6 | -57 | i | 9 | 14 | -7
COc1cc(CC(=O)OCC(=O)N2CC(=O)Nc3ccccc32)cc(OC)c1OC | 3 | 1 | 5 | . | i | -3 | -6 | 15
O=C(NCc1cccs1)c1cnc2ccccn2c1=O | . | 6 | 1 | . | i | -6 | 2 | 3
C[C@H]1CN([C@@H](C)CO)C(=O)CCCn2cc(nn2)CO[C@@H]1CN(C)C(=O)Nc1ccnc(N2CCOCC2)c1 | 13 | 4 | 10 | -1&12 | . | . | . | .
CCCNC(=O)C(Cc1ccccc1)NC(=O)c1cccc([N+](=O)[O-])c1 (stereo not given) | -24 | 1 | 0 | -19 | . | -1 | . | .
O=C(O)C1C(c2ccccc2)C(C(=O)OCCCO)C1c1ccccc1 (stereo not given) | 7 | 0 | 4 | -13 | i | 1 | 6 | 5
O=C(NNc1nc(-c2ccc(Cl)cc2)cs1)c1ccco1 | 0 | 11 | 3 | -19 | i | ? | 7 | 33
CCOC(=O)c1ccc(NC(=O)N2CCN(Cc3ccccc3)CC2)cc1 | -25 | -1 | 0 | . | + | 3 | -6 | 3
CCCn1ncc(CN2CCC(N3CCC(C(=O)N4CCOCC4)CC3)CC2)c1C | -4 | 0 | 0 | 1 | i | -5 | 2 | 7
CCCCCCOC(=O)C(C#N)c1nc2ccccc2nc1N1CCN(C)CC1 (stereo not given) | 18 | -16 | -8 | -17 | i | 6 | 27 | 21
COCc1cc(C)nc(SCc2ccc(F)cc2)c1C#N | 7 | 0 | -4 | -24 | i | 21 | -8 | -6
COc1ccc(-c2nn3c(-c4ccco4)nnc3s2)cc1OC | -41 | 5 | 2 | -22 | i | 15 | 0 | 11
COc1cc(C2CC(=O)N(c3ccc(C)cc3)C(=O)C2)cc(OC)c1OC | -150 | -7 | -14 | . | i | 50 | -8 | 4
O=C1COc2ccc(S(=O)(=O)Nc3ccc4c(c3)OCO4)cc2N1 | 3 | 2 | 0 | -11 | . | -6 | -9 | -10
Cc1nonc1CC(=O)NC1CCCc2c1cnn2-c1ccc(F)cc1F (stereo not given) | 4 | -7 | -7 | -19 | i | . | -7 | 8
O=C(COC(=O)c1ccc(F)c(S(=O)(=O)N2CCOCC2)c1)NCc1ccc(F)cc1 | -9 | 3 | 2 | . | . | 3 | . | .
CCOC(=O)C(C(=O)OCC)C(Nc1ccccc1)c1ccccc1 (stereo not given) | -11 | 2 | 2 | -17 | i | 10 | -1 | 5
CS(=O)(=O)c1ccc(N)cc1 | -39 | 2 | 6 | -1 | i | -6 | -14 | 0

Reprinted from the part before: 4 compounds, then new ones.
SMILES | HIV Env fusion | MT1-MMP act inh | MT1-MMP act inh RFP | Yeast UUG start | Rce1 inh | CSC inhib | eIF4H FP inh | PABP polyA inh | others
Cc1nonc1CC(=O)NC1CCCc2c1cnn2-c1ccc(F)cc1F (stereo not given) | 4 | -7 | -7 | -19 | i | . | -7 | 8
O=C(COC(=O)c1ccc(F)c(S(=O)(=O)N2CCOCC2)c1)NCc1ccc(F)cc1 | -9 | 3 | 2 | . | . | 3 | . | .
CCOC(=O)C(C(=O)OCC)C(Nc1ccccc1)c1ccccc1 (stereo not given) | -11 | 2 | 2 | -17 | i | 10 | -1 | 5
CS(=O)(=O)c1ccc(N)cc1 | -39 | 2 | 6 | -1 | i | -6 | -14 | 0
CS(=O)(=O)N(CC(=O)NCC1CCCO1)c1cc(Cl)cc(Cl)c1 (stereo not given) | . | 10 | -1 | -10 | i | -1 | -3 | 9
COc1cccc(NC(=O)NCC2CCN(Cc3ccc(F)cc3)CC2)c1 | 11 | -1 | -1 | -2 | i | 12 | 1 | 5
CCN(CC)C(=O)CSc1nnc2sc3ccccc3n12 | . | 1 | 5 | . | i | -3 | 0 | -5
CCN(CC)CCNC(=S)Nc1ccc2nc(N3CCN(C)CC3)cc(C)c2c1 | 4 | 0 | 1 | -21 | i | 5 | 5 | 33
O=c1oc2ccc(Br)cc2cc1S(=O)(=O)c1ccc(F)cc1 | . | -16 | -6 | . | i | 26 | -2 | 0
N#CCCn1cc(/C=N/NC(N)=S)c(-c2ccccc2)n1 | 9 | 2 | 5 | . | i | -19 | 5 | 11
COc1ccc(CCNC(=O)C2CCC(=O)N2CCc2ccccc2)cc1OC (stereo not given) | 17 | -4 | 0 | . | i | . | 12 | -6
CCOC(=O)c1ccc(NC(=O)N2CCN(Cc3cccc(F)c3)CC2)cc1 | . | 2 | 1 | . | i | 2 | -6 | -6
Cc1cccn2c(=O)c(C(=O)NC3CC(C)CC(C)(C)C3)c(O)nc12 (stereo not given) | . | -20 | -14 | -31 | i | 6 | . | .
Cc1ccc(NC(=O)c2ccc(Cl)c(S(=O)(=O)N3CCc4ccccc43)c2)nc1 | -3 | 1 | -31 | 8 | . | . | . | .
C=CCNc1oc(-c2cccs2)nc1S(=O)(=O)c1ccccc1 | 11 | 0 | -1 | 7 | i | -3 | -5 | -3
COc1ccc(-c2csc(NC(=O)c3ccc(OCC(=O)N4CCOCC4)c(OC)c3)n2)cc1 | . | 2 | -21 | -7 | i | -12 | -5 | -2
CCCCCCC(=O)N1C/C=C\C(c2ccc(OC)cc2)N(Cc2ccc(F)cc2)C(=O)C1 (stereo not given) | 37 | -2 | -8 | -12 | i | 2 | 2 | -6
Cc1cccnc1NC(=O)CNC(=O)c1sc2ccccc2c1Cl | . | -1 | 0 | -5 | . | 5 | . | .
CN(C)c1nc(NCc2ccccc2)nc(SCC(N)=O)n1 | 3 | -1 | -2 | -6 | i | 8 | -24 | -14
Cc1ccc(NC(=O)CN(C)C(=O)COC(=O)[C@@H](NC(=O)c2ccccc2F)C(C)C)cc1 | 23 | -3 | -3 | -1 | . | 15 | . | .
CCOc1ccc(N/C(C)=C/C(=O)c2ccc(C)o2)cc1 | -41 | 2 | 9 | -21 | i | -5 | -8 | -5
CCC(=O)Nc1cccc(NC(=S)NC(=O)c2ccccc2)c1 | -26 | 7 | 9 | . | i | 5 | -4 | -5
O=C(O)c1ccc(OCCCCCCOC2CCCCO2)cc1 (stereo not given) | 3 | -1 | -1 | -4 | i | -12 | -2 | -8
CC1CCCN(C(=O)CCc2nnc(-c3ccc4c(c3)OCO4)o2)C1 (stereo not given) | -19 | 3 | 5 | 8 | i | 6 | -6 | 6
